High-throughput results as filed in PubChem.
Vif TR-FRET = inhibitors of Vif binding to APOBEC3G peptide, primary screen, biochemical, TR-FRET, GST-Vif 1-94, biotin-A3G peptide, dose response retest (AID 1117319); 0.57% of 260,000 active; TR-FRET GST-Vif / biotin-A3G peptide binding; higher % means a stronger effect; test concentration not given here; strong numbers were not always called active; inhibition, %; hits with a dose series show IC50 in µM;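 active = above the screen mean plus three standard deviations and confirmed in dose response; inconclusive = results disagree or hit not tested in dose response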;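 note: Vif residues 1-94 fused to GST binding biotinylated APOBEC3G peptide 110-148; 0% = full assay without inhibitor and 100% = GST in place of GST-Vif; retest series ran down from 100 µM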
FGF22 binding = shifts melting point of recombinant human FGF22. Q9HCT0. recombinant FGF22 thermal shift, SYPRO orange fluorescence; percent of sucrose octasulfate shift, DMSO zero. calls only at 9.99 µM. 1.5% of 340,000 active. AID 651658;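 active = melting point raised past a set limit in the mean and every replicate; inconclusive = no clear call; three in four hits are not shown here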
Target sequence (Q9HCT0 whole entry, looked up): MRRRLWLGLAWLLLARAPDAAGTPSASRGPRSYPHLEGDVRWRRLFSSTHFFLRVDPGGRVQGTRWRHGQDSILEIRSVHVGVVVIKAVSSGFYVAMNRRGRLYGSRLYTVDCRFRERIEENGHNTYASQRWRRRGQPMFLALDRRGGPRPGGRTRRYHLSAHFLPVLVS
UCH37 inh = human UCH37 deubiquitinating enzyme inhibition; purified proteasome/UCH37, Ub-AMC cleavage fluorescence; Q9Y5K5; inhibition, % (test concentration not listed); 0.33% of 330,000 active; AID 588478;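 active = mean of two replicates above 20%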;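 note: 0% = compound-free wells with enzyme and 100% = wells lacking proteasome; stock transfer was 100 nL into about 20 µL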
Target sequence (Q9Y5K5 whole entry, looked up): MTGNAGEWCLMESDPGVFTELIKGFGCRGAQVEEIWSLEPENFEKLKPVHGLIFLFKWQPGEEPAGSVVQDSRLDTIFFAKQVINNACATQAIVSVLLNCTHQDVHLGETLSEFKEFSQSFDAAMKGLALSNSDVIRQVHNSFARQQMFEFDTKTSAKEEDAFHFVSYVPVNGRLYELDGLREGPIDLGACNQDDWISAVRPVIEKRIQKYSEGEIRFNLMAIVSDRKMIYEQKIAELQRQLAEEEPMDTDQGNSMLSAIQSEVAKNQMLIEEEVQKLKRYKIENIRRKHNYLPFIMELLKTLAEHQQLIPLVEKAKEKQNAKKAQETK
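Material: Human UCH37 enzyme supplied as purified proteasome complex | Schedule: 30 min preincubation with enzyme, 25 min cleavage at room temperature | Detection: AMC fluorescence 355/460 nm | Measure: % inhibition of Ub-AMC cleavage fluorescence | Controls: Wells without proteasome as full block, compound-free enzyme plus substrate as uninhibited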
RanGTP-Impb inh = disruptors of Ran-importin-beta complex formation – biochemical, FRET, CFP-Ran, YFP-importin-beta, homogeneous, primary screen. cell-free CFP-Ran/YFP-importin-beta FRET ratio. inhibition, % (test concentration not listed). 1.1% of 300,000 active;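 active = most replicates above 15%; inconclusive = exactly half above 15%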;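 note: 0% = DMSO wells and 100% = Ran loaded with GDP instead of GTP; wells of about 40 µL received 100 nL stock; the first replicate is given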
Ecoli growth = blocks Escherichia coli growth; OD600 absorbance (concentration not given with the values); 0.21% of 330,000 active; OD600, 23 h; stronger effect = lower value;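 active = OD600 absorbance below the run mean of sample wells minus 3.6 SD, in any replicate, cut at about 0.56 in these data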;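 note: stock transfer was 300 nL into about 60 µL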
AF4-AF9 inh = blocks AF4 peptide binding to human AF9. P42568. AlphaScreen, biotin-AF4 peptide binding to FLAG-AF9. inhibition, % at 10 µM. 0.47% of 350,000 active. AID 651704;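 active = every replicate reaching a set inhibition limit, whatever the replicate mean, cut at about 25% in these data; inconclusive = mean inhibition reaches that limit but some replicates miss it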;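 note: 0% = plate neutral control median and 100% = total signal loss; the record names both 10 and 1 µM as test concentration; the first replicate is given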
HNF4A DNA FP = change in binding of human HNF4 alpha to DNA; P41235; HNF4a-FITC DNA binding, fluorescence polarization, 1 h; activity change, % at 10 µM; 0.3% of 360,000 active; AID 1224865; in the data active = activity change above about 30%, passing the limit was not always enough;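 note: controls were the assay level and a saturating level of protein; the project sought stronger binding though the title names inhibitors; some compounds called inactive have numbers as strong as hits; positive values seem to mean higher polarization but the record does not say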
Target sequence (P41235 whole entry, looked up): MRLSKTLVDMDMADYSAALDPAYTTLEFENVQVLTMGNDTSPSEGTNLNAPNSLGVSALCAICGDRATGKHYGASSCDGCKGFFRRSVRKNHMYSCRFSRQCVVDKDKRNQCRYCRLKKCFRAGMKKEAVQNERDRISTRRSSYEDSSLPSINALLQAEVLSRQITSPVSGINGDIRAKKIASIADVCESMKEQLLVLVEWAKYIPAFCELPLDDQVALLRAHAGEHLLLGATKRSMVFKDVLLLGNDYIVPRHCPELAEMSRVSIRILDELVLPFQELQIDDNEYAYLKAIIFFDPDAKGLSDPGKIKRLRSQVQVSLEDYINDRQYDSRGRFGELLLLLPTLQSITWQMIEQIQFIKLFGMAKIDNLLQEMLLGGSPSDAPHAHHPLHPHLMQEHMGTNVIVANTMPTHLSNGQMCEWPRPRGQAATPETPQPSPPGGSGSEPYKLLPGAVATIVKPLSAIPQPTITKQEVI
* = called active by the depositor; i = inactive; ? = inconclusive; / = not tested or not shown; & = joins results of further samples. Only part of the results is shown; the hit share may differ from the screen's.

SMILES	Vif TR-FRET	FGF22 binding	UCH37 inh	RanGTP-Impb inh	Ecoli growth	AF4-AF9 inh	HNF4A DNA FP
O=C(O)CCc1ccc(S(=O)(=O)Nc2cc(C(F)(F)F)ccc2N2CCCC2)cc1	14µM*	i	7.2	/	0.69	1.7	-24
CCOc1ccc(Cl)cc1-c1cc(C(=O)NC2CCCCC2)[nH]n1	/	i	/	/	/	0.2	5.1
Cc1ccc(-c2nc3ccccc3s2)cc1NC(=O)c1cc(-n2cnnc2)ccc1Cl	-14%	i	-29	-1.2	0.69	-29	-0.3
CSCC[C@H](NC(=O)Nc1ccc(C)cc1C)C(=O)O	1%	/	-6.2	1.2	0.73	/	-2.3
COc1cccc(C(=O)Nc2ccc(NC(=O)C(C)(C)C)cn2)c1	6%	/	1.4	-2.4	0.68	/	-1.3
CC1(C(=O)Nc2cccc(Oc3ccccc3)c2)CCN1Cc1cccc2c1OCO2 (stereo not drawn)	/	i	/	/	/	-2.0	-1.0
COc1ccc(CC(=O)NNC(=O)c2cc(Cl)ccc2OC)cc1	5%	i	0.7	/	0.69	-2.5	-0.1
COc1ccccc1C(=O)Nc1c2c(nn1-c1cccc(C)c1C)CS(=O)(=O)C2	0%	/	-17	-3.1	0.71	/	4.5
Cc1noc(C)c1C(=O)N1CCC1(C)C(=O)NS(=O)(=O)c1ccc(Cl)cc1 (stereo not drawn)	/	i	/	/	/	1.6	-0.8
Cn1c(=O)n(CCc2ccccc2)c2ccccc21	-2%	i	1.6	-0.2	0.63	2.8	1.0
CC(C)c1ccc(CN2CCN(S(=O)(=O)c3ccc(Cl)s3)CC2)cc1	-14%	i	-1.2	/	0.69	1.3	8.0
CCOC(=O)c1sc(NC(=O)C(C)(C)C)cc1C	1%	i	5.9	2.7	0.69	7.8	3.4
C(=C\c1ccco1)/c1nc2ccccc2[nH]1	-4%	/	-32	-1.3	0.57	/	2.8
Cc1ccc(N(C)S(=O)(=O)c2c[nH]c3ccc([N+](=O)[O-])cc23)cc1	/	i	0.1	5.6	0.65	4.2	1.8
Cc1cc(Br)cn2c(CC(C)(C)C)c(-c3cccc(Cl)c3)nc12	/	i	/	/	/	0.5	6.8

In a second layout: results already given
Value order: Vif TR-FRET	FGF22 binding	UCH37 inh	RanGTP-Impb inh	Ecoli growth	AF4-AF9 inh	HNF4A DNA FP
Cc1ccc(-c2nc3ccccc3s2)cc1NC(=O)c1cc(-n2cnnc2)ccc1Cl
 : -14%	i	-29	-1.2	0.69	-29	-0.3
CSCC[C@H](NC(=O)Nc1ccc(C)cc1C)C(=O)O
 : 1%	/	-6.2	1.2	0.73	/	-2.3
COc1cccc(C(=O)Nc2ccc(NC(=O)C(C)(C)C)cn2)c1
 : 6%	/	1.4	-2.4	0.68	/	-1.3
CC1(C(=O)Nc2cccc(Oc3ccccc3)c2)CCN1Cc1cccc2c1OCO2 (stereo not drawn)
 : /	i	/	/	/	-2.0	-1.0
COc1ccc(CC(=O)NNC(=O)c2cc(Cl)ccc2OC)cc1
 : 5%	i	0.7	/	0.69	-2.5	-0.1

Next section:
SMILES	Vif TR-FRET	FGF22 binding	UCH37 inh	RanGTP-Impb inh	Ecoli growth	AF4-AF9 inh	HNF4A DNA FP
O=C(/C=C/c1ccccc1Cl)Nc1ccc2c(c1)C(=O)NC2=O	2%	i	-97	6.6	0.73	-4.8	3.1
Cc1cccc(CN2CCC(Oc3ccc(C(=O)N4CCCC4)cc3)CC2)n1	/	i	-2.2	-2.1	0.7	0.5	-1.1
CCCC(C(=O)NC1CCCC1)N(Cc1cccs1)C(=O)c1snc(C(N)=O)c1N (stereo not drawn)	5%	/	-23	-0.8	0.69	/	2.8
CCCn1c(=O)c(C(=O)N/N=C/c2ccc(F)cc2)c(O)c2ccccc21	18%	i	/	5.4	/	3.8	-1.8
CCOCCn1c(COc2ccccc2)nc2ccccc21	9%	/	-1.5	-5.0	0.74	/	0.4
O=c1[nH]c(SCCN2CCOCC2)nc(O)c1-c1ccccc1	-3%	i	2.3	0.9	0.67	6.3	14
C#CCNC(=O)C1=C[C@H](c2ccc(C#C)cc2)C[C@H](OCc2ccc(CO)cc2)O1	/	/	-0.2	-0.4	/	/	3.0
COC(C[C@@H](O)[C@H](C)[C@@H](O)COCc1ccccc1)OC	13%	i	-1.9	1.3	/	-8.6	8.6
CC(C)(C(N)=O)c1ccccc1	-4%	i	1.7	-0.7	0.68	-0.7	3.8
O=C(CN1C(=O)C2CCCCC2C1=O)OCn1nnc2ccccc2c1=O (stereo not drawn)	-6%	i	3.8	0.8	0.67	0.0	-2.3
CCOc1ccc(C(=O)N(CN2CCCC2=O)c2cccc(Cl)c2)cc1	-3%	i	0.6	0.3	0.73	-0.2	4.8
Cc1ccccc1CN1C(=O)c2ccccc2S(=O)c2ccc(C(=O)NCCCN3CCOCC3)cc21 (stereo not drawn)	-5%	i	-0.7	0.2	0.69	4.3	0.3
Cc1ccc2[nH]c3c(=S)nc[nH]c3c2c1	/	i	-0.5	1.1	0.73	-11	2.2
CS(=O)(=O)CCC(C(=O)O)N1C(=O)c2ccc(Oc3ccc(Cl)cc3)cc2C1=O (stereo not drawn)	1%	i	5.1	3.0	0.69	1.1	2.1
CCC(c1nnnn1C1CCCC1)N1CCN(C/C=C/c2ccccc2)CC1 (stereo not drawn)	/	i	/	/	/	4.1	0.1
CCOC(=O)c1sc(-c2ccc(Br)cc2)cc1N	-28%	i	-15	5.9	0.67	-25	1.0
COC(=O)c1ccc(/C=N/NC(=O)C(=O)N2CCCCCC2)cc1	-23%	i	/	-2.6	/	-2.9	0.3
COCc1cc(CNC(=O)C2CCC(=O)N(Cc3cccc(OC)c3)C2)[nH]n1 (stereo not drawn)	/	i	4.0	-5.6	0.68	0.4	1.8
CC(Sc1nnc(Nc2ccccc2)s1)C(=O)Nc1nc(-c2ccccc2)cs1 (stereo not drawn)	-2%	i	1.2	-0.1	0.71	-12	-2.2
CC1CCCN(C(=O)C2(NC(=O)Nc3cccc(F)c3)CCCCC2)C1 (stereo not drawn)	6%	i	-1.0	-3.1	0.72	-3.0	1.0
O=C1CCC(/C=C/c2ccccc2)=NN1	5%	i	/	3.4	/	-18	4.0
CC1=NN(c2ccc(Br)cc2)C(=O)/C1=C/c1ccc(-c2ccccc2C(=O)O)o1	11%	i	8.5	2.9	0.65	-1.9	-4.2
O=C(Nc1cc(Cl)ccc1N1CCOCC1)c1cc2ccccc2o1	-11%	i	-4.8	5.5	0.72	0.5	-4.0
CCOc1ccc(CN2CCNC(=O)C2CC(=O)NCc2ccccn2)cc1 (stereo not drawn)	13%	i	-0.3	-2.8	0.74	-0.2	-1.5
O=C(NCCC1=CCCCC1)C(=O)NCCc1ccc(Cl)cc1	-16%	/	7.9	1.9	0.71	-0.9	-1.6
Cc1cn2c(nc1=O)OC1C(O)C(COC(=O)c3ccccc3)OC12 (stereo not drawn)	-4%	/	4.8	2.1	0.7	/	-1.8
CN(C)N1C(N)=C(C#N)C(c2ccsc2)C2=C1CCCC2=O (stereo not drawn)	/	/	6.0	-2.1	0.63	/	4.1
CCN1C(=O)[C@@H]2[C@@H](c3ccc(-c4cc(C(C)=O)cs4)cc3)N3CCC[C@@]3(C(=O)OC)[C@@H]2C1=O	/	i	-5.2	/	/	/	-0.3
COc1ccc(CN2c3c(Br)cccc3C(=O)CS2(=O)=O)cc1	1%	/	1.2	/	0.67	/	2.4
CCSc1nnc(NC(=O)C(NC(=O)c2ccc(Cl)cc2)C(C)C)s1 (stereo not drawn)	-5%	/	0.3	2.8	0.62	/	2.3
O=C(NCC1CCCO1)c1cccc(S(=O)(=O)N2CCCCC2)c1 (stereo not drawn)	0%	i	0.1	/	0.69	-1.7	-1.0
Cc1cc(C)nc(SCC(=O)NC2=NN=C(c3ccc(Br)cc3)CS2)n1	5%	/	4.5	38*	0.75	/	1.8
COc1ccc(-c2ccc(NS(=O)(=O)c3ccc([N+](=O)[O-])cc3)cc2)nn1	/	i	4.0	2.8	0.69	-1.2	-2.5
COc1cc(OC)cc(C(=O)NCC(=O)OCC(=O)Nc2ccc(C)c(S(=O)(=O)N3CCOCC3)c2)c1	6%	i	0.8	/	0.64	-27	0.9
O=C(Nc1nc(=O)c2ccccc2s1)c1ccc(F)cc1	-9%	i	5.0	1.2	0.66	3.4	-0.3
Cc1cccc(C)c1OCCn1nnc2ccccc21	/	i	4.0	-3.5	0.62	-12	2.4
CC1(C)Cc2ccccc2C(Nn2cnnc2)=N1	0%	i	1.3	2.0	0.67	-5.3	-2.2
COC(=O)c1c(C(=O)OC)c(-c2ccccc2)n2c1CS(=O)(=O)C2	-5%	/	0.3	22*	0.71	/	-1.3
Cc1ccc(S(=O)(=O)N2CCCCC2)cc1NC(=O)CCOc1ccccc1	/	i	1.9	-1.8	0.68	-2.4	1.5
O=C(Cn1nnc(-c2ccccc2)n1)Nc1ccccc1N1CCOCC1	5%	/	2.4	0.8	0.66	/	-0.9
COc1ccc(CCNC(=O)c2ccc([N+](=O)[O-])cc2)cc1	?	i	3.7	-2.9	0.66	1.1	-0.9
Cc1ccc(C2=NN(C(=O)COc3ncnc4ccccc34)C(c3ccco3)C2)cc1 (stereo not drawn)	-21%	i	1.5	4.8	0.71	0.2	3.4
O=C1CN(C(=O)c2ccccc2)C(c2ccccc2)c2cc(Cl)ccc2N1 (stereo not drawn)	6%	i	1.8	9.2	0.64	-9.9	-1.2
O=C(Cc1ccccc1)NC1CCSc2ccccc21 (stereo not drawn)	/	i	-0.9	-0.2	0.71	-2.6	-0.8
O=C(Cc1ccc(Cl)cc1)c1c[nH]c(C(=O)NCCCn2ccnc2)c1	10%	i	2.0	6.5	0.67	0.3	3.9
NC(=S)N=Nc1c(O)n(CCCl)c2ccccc12	/	i	2.7	2.8	0.72	0.4	1.4
COCCn1c(SC2CCOC2=O)nc2ccccc2c1=O (stereo not drawn)	-5%	i	0.3	-3.7	0.71	0.4	0.1
CC(=O)Nc1ccc(NC(=O)CCCSc2nc3ccccc3s2)cc1	-6%	i	-0.7	-0.4	0.69	-1.4	4.3
CN1C(=O)NC(c2ccc(O)cc2)C2=C1CN(c1ccc(O)cc1)C2=O (stereo not drawn)	2%	i	1.1	2.4	0.65	-0.6	3.9
O=C(CN1CCc2ccccc2C1)Nc1ccccc1C(=O)NC1CC1	-5%	i	-0.1	/	0.69	-1.2	-3.7
CN(C(=O)c1cc(COc2ccc(F)cc2Cl)on1)C1CCCc2ccccc21 (stereo not drawn)	8%	i	4.5	-1.8	0.69	-4.4	0.2
O=C1CCC(c2ccccc2)=NN1	/	i	3.0	1.4	0.7	-2.4	4.7
CSCCC(NC(=O)c1ccccc1Cl)C(=O)Nc1ccc(C)c(S(=O)(=O)N2CCOCC2)c1 (stereo not drawn)	2%	i	4.0	-0.7	0.65	9.9	6.7
CCCc1nc2c(ccc3ccccc32)cc1CC	-5%	i	-5.7	-0.8	0.66	-2.8	2.9
CCOc1ccccc1C(=O)Nc1cccc(-c2ccc(N3CCOCC3)nn2)c1	13%	i	0.3	-3.7	0.57	6.0	-0.7
Cc1cccc(Nc2ccccc2C(=O)O)c1C	?	i	4.4	-3.0	0.73	-2.1&3.3	0.7
COc1cc(NC(=S)NC(=O)CCc2ccccc2)cc(OC)c1	-2%	i	-1.3	-2.0	0.68	0.3	1.1
CCOC(=O)c1c(NC(=O)CN2CCN(C(=O)c3ccco3)CC2)sc(C)c1C	/	i	-2.8	-0.1	0.7	1.5	4.7
COCCCN(C(=S)Nc1cccc(Cl)c1)C(C)c1ccncc1 (stereo not drawn)	/	i	2.7	-0.6	0.67	-4.9	0.7
